Insulin prom inh – TRM-6 insulin promoter activity inhibition; TRM-6 cells (human fetal islet line), insulin promoter-eGFP reporter, imaging; reporter expression induced with tamoxifen; inhibition, % at 2 µM; AID 1273; 130,000 compounds, 0.9% hits;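 active = inhibition above the mean plus 3 SD, with well images judged a real hit on visual review, cut at about 60% in these data, passing the limit was not always enough; inconclusive = inhibition over the cutoff but images rejected on review; inactive = inhibition not above the cutoff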
HSV replic up – HSV replication enhancement | HSV replication augmentation in cells, fold increase | maximum fold increase | 220,000 compounds, 0.005% hits | AID 1956;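 active = peak rise of 1.5-fold or more in the series; inconclusive = self-fluorescent or not available for retest; tested in PC3 cells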;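 note: first round at 10 µM; read as green reporter fluorescence; hits show the peak of a series up to 25 µM; 1 = signal of infected wells without compound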
PKD1 inh – PKD1 (human) kinase inhibition; Q15139; inhibition, %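 (about 10 µM by stock and volumes)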; PKD1 kinase fluorescence polarization assay; 200,000 compounds, 0.056% hits;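 active = inhibition of 50% or more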;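 note: controls were vehicle for no effect and a reference inhibitor for full effect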
Target sequence (Q15139 whole entry, looked up): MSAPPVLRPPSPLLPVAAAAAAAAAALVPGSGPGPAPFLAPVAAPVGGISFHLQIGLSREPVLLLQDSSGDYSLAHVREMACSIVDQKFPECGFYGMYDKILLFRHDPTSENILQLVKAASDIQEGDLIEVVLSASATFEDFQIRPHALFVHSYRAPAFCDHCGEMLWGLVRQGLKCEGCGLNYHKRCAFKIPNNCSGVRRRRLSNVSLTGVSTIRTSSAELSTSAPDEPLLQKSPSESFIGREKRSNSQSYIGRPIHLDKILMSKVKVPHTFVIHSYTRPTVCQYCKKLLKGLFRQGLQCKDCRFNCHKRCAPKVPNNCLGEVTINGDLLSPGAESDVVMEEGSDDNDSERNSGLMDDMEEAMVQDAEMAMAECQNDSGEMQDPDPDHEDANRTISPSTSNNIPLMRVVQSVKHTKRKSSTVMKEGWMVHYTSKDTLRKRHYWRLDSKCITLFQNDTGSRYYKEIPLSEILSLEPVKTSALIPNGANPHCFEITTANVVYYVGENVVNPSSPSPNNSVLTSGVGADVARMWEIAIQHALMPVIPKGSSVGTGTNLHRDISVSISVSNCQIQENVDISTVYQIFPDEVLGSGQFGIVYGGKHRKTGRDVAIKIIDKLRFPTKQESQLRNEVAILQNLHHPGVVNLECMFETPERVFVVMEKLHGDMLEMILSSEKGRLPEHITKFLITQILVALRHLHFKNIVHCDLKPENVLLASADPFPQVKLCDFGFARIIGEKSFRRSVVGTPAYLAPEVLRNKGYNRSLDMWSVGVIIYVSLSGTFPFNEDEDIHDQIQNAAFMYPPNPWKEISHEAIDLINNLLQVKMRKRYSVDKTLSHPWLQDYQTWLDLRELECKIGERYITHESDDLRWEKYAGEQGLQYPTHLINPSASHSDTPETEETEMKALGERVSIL
GALR2 ag – agonists of human galanin receptor 2 (GALR2); GALR2-expressing cells, agonist activation read-out; activation, %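 (tested at 5 µM)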; 140,000 compounds, 0.48% hits; AID 803;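 active = above mean plus 3 SD of all compounds, about 5% in these data, not always enough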;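 note: 0% = vehicle buffer wells and 100% = reference agonist at full effect; tested in CHO reporter cells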
RGS16-Gao HTS – RGS16-Galphao interaction regulator (human); O15492+P09471; bead-based flow cytometry RGS16-Galphao binding, fluorescence; actives lie on both sides; 220,000 compounds, 0.38% hits; AID 1441; binding response (% of control), % at 10 µM;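 active = below 25% or above 175%, edge rows of some plates excepted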;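 note: Galphao activated by GDP with aluminum fluoride before binding; 100% = wells without compound and 0% = beads without RGS; some results beyond the cut were filed as inactive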
Insulin prom inh cell count – second read-out of Insulin prom inh, no call of its own (marks repeat the call); normalized cell count, %; measured here: cell count, toxicity; reference of the scale not given here;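 cells exposed to compound for 48 h; stained nuclei by imaging scaled within each plate; lower means fewer cells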
HSV replic up primary fold – also measured in HSV replic up; calls as there; fold increase; compound at 10 µM; measured here: primary screen fold increase 10 uM; tested in PC3 cells;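 GFP signal in the first replicate; 1 = infected wells without compound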
An asterisk follows results filed as active; i = inactive; u = inconclusive; x = no result given.

entry | SMILES | Insulin prom inh | Insulin prom inh cell count | HSV replic up | HSV replic up primary fold
1 | O=C(CSc1cccc[n+]1[O-])NCCCc1ccccc1 | x | x | i | 1
2 | N/C(Cc1ccc([N+](=O)[O-])cc1)=N\OC(=O)c1ccco1 | x | x | i | 0.92
3 | O=c1[nH]cc(I)cc1I | x | x | i | 1.1
4 | CCOC(=O)C1(Cc2ccc(Cl)cc2)CCN(C(=O)C2=NNC(=O)CC2)CC1 | x | x | i | 1
5 | O=C1C2C3CCC(C3)C2C(=O)N1c1ccc(OS(=O)(=O)c2ccccc2)cc1 (configuration not stated) | x | x | i | 0.89
6 | O=C(N=C1N=C2C=CC(Br)=CN2Cc2ccccc21)c1ccc([N+](=O)[O-])cc1[N+](=O)[O-] | x | x | i | 0.94
7 | COc1cccc(CNC(=O)CCC2CCCN(C(=O)c3cc(C)[nH]n3)C2)c1 (configuration not stated) | x | x | i | 0.95
8 | Cc1cc(C)nc(Nc2n[nH]c(-c3ccccc3C)n2)n1 | x | x | i | 0.9
9 | N#Cc1c(N)c(C(=O)c2ccccc2)n2c1CCCC2 | -237 | 37 | i | 0.98
10 | CC(=O)C1C(c2ccc(C)cc2)c2c(n[nH]c2C)CC1(C)O (configuration not stated) | 6 | 119 | i | 0.93
11 | O=C(Nc1ccc(OC(F)(F)F)cc1)C1CC(c2ccc(F)cc2)=NO1 (configuration not stated) | x | x | i | 1
12 | O=C(OCn1nnc2ccccc2c1=O)c1cc2ccccc2o1 | x | x | i | 0.85

entry | RGS16-Gao HTS | GALR2 ag | PKD1 inh
1 | 103 | x | 4
2 | 107 | x | -4
3 | 96 | x | x
4 | 97 | x | -6
5 | 102 | x | 2
6 | 106 | x | x
7 | 104 | x | 3
8 | 102 | x | 6
9 | 99 | -1.0 | -3
10 | 104 | -2.8 | 7
11 | 101 | x | 6
12 | 93 | x | x

Three compounds from above, reduced to PKD1 inh, RGS16-Gao HTS and HSV replic up:
entry | mol | PKD1 inh | RGS16-Gao HTS | HSV replic up
6 | O=C(N=C1N=C2C=CC(Br)=CN2Cc2ccccc21)c1ccc([N+](=O)[O-])cc1[N+](=O)[O-] | x | 106 | i
7 | COc1cccc(CNC(=O)CCC2CCCN(C(=O)c3cc(C)[nH]n3)C2)c1 (configuration not stated) | 3 | 104 | i
8 | Cc1cc(C)nc(Nc2n[nH]c(-c3ccccc3C)n2)n1 | 6 | 102 | i

6 neighbouring compounds out of the list so far, quoted:
entry | SMILES | Insulin prom inh | Insulin prom inh cell count | HSV replic up | HSV replic up primary fold
1 | O=C(CSc1cccc[n+]1[O-])NCCCc1ccccc1 | x | x | i | 1
2 | N/C(Cc1ccc([N+](=O)[O-])cc1)=N\OC(=O)c1ccco1 | x | x | i | 0.92
3 | O=c1[nH]cc(I)cc1I | x | x | i | 1.1
4 | CCOC(=O)C1(Cc2ccc(Cl)cc2)CCN(C(=O)C2=NNC(=O)CC2)CC1 | x | x | i | 1
5 | O=C1C2C3CCC(C3)C2C(=O)N1c1ccc(OS(=O)(=O)c2ccccc2)cc1 (configuration not stated) | x | x | i | 0.89
6 | O=C(N=C1N=C2C=CC(Br)=CN2Cc2ccccc21)c1ccc([N+](=O)[O-])cc1[N+](=O)[O-] | x | x | i | 0.94

entry | RGS16-Gao HTS | GALR2 ag | PKD1 inh
1 | 103 | x | 4
2 | 107 | x | -4
3 | 96 | x | x
4 | 97 | x | -6
5 | 102 | x | 2
6 | 106 | x | x

The list continues:
entry | SMILES | Insulin prom inh | Insulin prom inh cell count | HSV replic up | HSV replic up primary fold
13 | C/C(=N\NC(=O)CNc1ccccc1Cl)C(C)(C)C | 6 | 81 | i | 0.8
14 | CSc1nc(-c2ccco2)nn1C(=O)c1ccc(C)cc1 | x | x | i | 0.93
15 | CN1/C(=C\C(=O)COC(=O)c2ccccc2O)C(C)(C)c2ccccc21 | x | x | i | 1.1
16 | COc1cc(C)c(S(=O)(=O)Nc2ccccc2F)cc1C | -57 | 184 | i | 0.99
17 | Cc1ccc(CC(=O)N2CC(C)OC(C)C2)cc1 (configuration not stated) | -31 | 67 | i | 0.96
18 | COc1ccc(CNC(=O)C(c2ccco2)N(C(=O)c2csnn2)c2cccc(C)c2C)cc1 (configuration not stated) | -12 | 121 | i | 0.93
19 | COC(=O)CSc1nnc(CNC(=O)c2cccs2)n1-c1cccc(C)c1 | x | x | i | 1.1
20 | CCOC(=O)CNC(=O)c1ccc(Br)s1 | x | x | i | 1.1
21 | Cc1ccc(S(=O)(=O)N(C)CC(=O)OCC(=O)NC(c2ccccc2)c2ccccc2)cc1 | x | x | i | 1.1
22 | O=C1CN(C(=O)CSc2nncn2-c2ccccc2)c2ccccc2N1 | 3 | 94 | i | 0.72
23 | Cc1ccc(S(=O)(=O)NCCCCCC(=O)Nc2ccccn2)cc1 | -22 | 124 | i | 0.83
24 | CCc1c(C)nc(N2CCN(Cc3ccccc3)CC2)[nH]c1=O | -93 | 85 | i | 0.99

entry | RGS16-Gao HTS | GALR2 ag | PKD1 inh
13 | 97 | -0.1 | -3
14 | 91 | -0.7 | -4
15 | 94 | x | x
16 | 79 | -5.8 | -7
17 | 100 | -0.6 | -5
18 | 104 | -2.4 | 5
19 | 95 | -1.2 | -2
20 | 104 | x | x
21 | 93 | -2.4 | 3
22 | 153 | -1.1 | 1
23 | 88 | -0.6 | 1
24 | 121 | -2.4 | -5

Next part.
entry | SMILES | Insulin prom inh | Insulin prom inh cell count | HSV replic up | HSV replic up primary fold
25 | O=S(=O)(NC1CCCC1)c1ccc(S(=O)(=O)N2CCCN(Cc3ccccc3)C2)cc1 | x | x | i | 0.81
26 | O=C(CCSCCc1ccccn1)Nc1ccc(Cc2ccncc2)cc1 | 14 | 40 | i | 1
27 | COc1ccc(S(=O)(=O)NCCc2cn3cccc(C)c3n2)cc1OC | x | x | i | 0.85
28 | CCCOc1ccc(-c2nc(C#N)c(N3CCN(C)CC3)o2)cc1 | 35 | 123 | i | 0.91
29 | CCC(C)NC(=O)C1(C)CCC(=O)N1CCc1ccc(OC)c(OC)c1 (configuration not stated) | -11 | 142 | i | 0.86
30 | Cc1cccc(C)c1OC(=O)CSc1nnc(-c2ccccc2O)o1 | 3 | 95 | i | 1.1
31 | CSCCNC(=O)c1ccc(OC2CCN(CCc3ccccc3)CC2)cc1 | x | x | i | 1
32 | Cc1cc2c(cc1C)C(c1cc(Br)ccc1F)CC(=O)N2 (configuration not stated) | -19 | 86 | i | 0.9
33 | O=C(NC(c1ccccc1)c1ccccc1)c1ccc(S(=O)(=O)C(F)F)cc1 | 0 | 234 | i | 0.84
34 | FC(F)(F)c1cnc(Sc2nc3nccc(-c4ccc(Cl)cc4)n3n2)c(Cl)c1 | -39 | 106 | x | x
35 | CCOC(=O)N1CCC(N(CCOC)C(=O)Nc2ccc(Cl)cc2)CC1 | x | x | x | x
36 | COc1ccc(C2C(C#N)=C(N)N(c3ccccc3C#N)C3=C2C(=O)CCC3)cc1CN1CCCC1 (configuration not stated) | -20 | 152 | i | 1

entry | RGS16-Gao HTS | GALR2 ag | PKD1 inh
25 | 77 | -2.8 | -10
26 | 97 | x | 5
27 | 103 | -3.1 | 20
28 | 104 | 0.1 | -3
29 | 106 | -1.9 | 9
30 | 105 | -0.5 | -3
31 | 96 | x | 8
32 | 51 | 0.5 | 2
33 | 102 | -2.0 | -9
34 | 134 | -1.4 | -11
35 | 86 | -0.7 | -3
36 | 97 | 0.5 | -13

The list continues.
entry | SMILES | Insulin prom inh | Insulin prom inh cell count | HSV replic up | HSV replic up primary fold
37 | CCOC(=O)c1cc(NC(=O)Nc2ccccc2OC)c(C)nc1C | 0 | 52 | i | 0.86
38 | CC1=CN2C(=N)/C(=C/c3ccc([N+](=O)[O-])o3)C(=O)N=C2S1 | x | x | u | x
39 | O=C(CCn1cnc2ccccc2c1=O)Nc1nc2c(s1)CCCC2 | i | 60 | i | 1
40 | CN1CCN(C(=O)CC2(CC(=O)O)CCCC2)CC1 | -33 | 117 | i | 0.94
41 | CCSc1nc(C)cc(C)c1S(=O)(=O)c1ccccc1C | -50 | 76 | i | 0.76
42 | CN(Cc1cn(C)nc1-c1ccccc1F)CC1CCCCO1 (configuration not stated) | x | x | i | 0.93
43 | COc1ccc(OC)c(NC(=O)C2CC(=O)n3ncnc3N2)c1 (configuration not stated) | 0 | 80 | i | 0.8
44 | O=C(O)c1ccc(COc2cccc(CO)c2)cc1 | -33 | 108 | i | 1.1
45 | CN(C)S(=O)(=O)c1ccc2oc(SCC(=O)Nc3ccccc3F)nc2c1 | x | x | i | 0.9
46 | CSc1ccc(Cn2nnc(C(=O)Nc3ccc(C)c(C)c3)c2N)cc1 | x | x | i | 0.95
47 | CCCOc1ccc(N2C(=O)C3C(C(C)C)NC4(C(=O)c5ccccc5C4=O)C3C2=O)cc1 (configuration not stated) | 21 | 71 | i | 0.93
48 | CCNC(=S)N1CC(C)OC(C)C1 (configuration not stated) | 0 | 72 | i | 0.92

entry | RGS16-Gao HTS | GALR2 ag | PKD1 inh
37 | 106 | -1.7 | -4
38 | 88 | -2.6 | -5
39 | 97 | -2.3 | -13
40 | 105 | x | 3
41 | 108 | 0.5 | -6
42 | 78 | x | 2
43 | 110 | -2.6 | -8
44 | 93 | 0.4 | -4
45 | 97 | x | 4
46 | 101 | 0.6 | -11
47 | 105 | -1.1 | 5
48 | 105 | -3.4 | -6

Remaining list, next part:
entry | SMILES | Insulin prom inh | Insulin prom inh cell count | HSV replic up | HSV replic up primary fold
49 | Cn1c(=O)[nH]c(=O)c2c1nc(SCCN1CCOCC1)n2CCCc1ccccc1 | x | x | i | 0.85
50 | COc1ccc(C2CC(c3ccccc3)=NN2C(=O)CSc2nccc(=O)[nH]2)cc1 (configuration not stated) | 14 | 87 | i | 0.97
51 | CCc1ccc(C(=O)NC(C(=O)O)C(C)C)cc1 (configuration not stated) | -3 | 94 | i | 1.1
52 | CCOC(=O)CSc1nc2ccccc2c(=O)n1C | 32 | 142 | i | 1
53 | CC(C)OC(=O)CN1C(=O)c2ccccc2C1=O | -9 | 35 | i | 1
54 | CCOC(=O)N1CCN(CC(O)COc2cc(C)ccc2C(C)C)CC1 (configuration not stated) | -442 | 43 | x | x
55 | O=C(CSc1nc2ccccc2c(=O)n1-c1ccccc1)N1CCC1 | x | x | i | 1.1
56 | CN(C)c1ccc(C(C(=O)NC(C)(C)C)N(C(=O)c2csnn2)C2CC2)cc1 (configuration not stated) | -55 | 112 | i | 0.89
57 | CCc1ccc(NC(=O)CSCCO)cc1 | -83 | 50 | i | 0.98
58 | CCc1nnc(NC(=O)CN2C(=O)/C(=C/c3cc(OC)c(OC)c(OC)c3)SC2=S)s1 | -9 | 149 | i | 0.89
59 | Cc1ccc(/C=N/NS(=O)(=O)c2ccc([N+](=O)[O-])cc2)o1 | 29 | 56 | i | 1.1
60 | O=C(CN1CCN(C(=O)c2ccccc2)CC1)Nc1ncc(Br)cc1Br | 50 | 165 | i | 0.98

entry | RGS16-Gao HTS | GALR2 ag | PKD1 inh
49 | 103 | -3.6 | 2
50 | 100 | 0.0 | -10
51 | 99 | -2.8 | -2
52 | 101 | -1.5 | -7
53 | 100 | -0.9 | -7
54 | 103 | -0.6 | -1
55 | 107 | x | -3
56 | 106 | -0.9 | -13
57 | 108 | -0.2 | -7
58 | 101 | -0.2 | 3
59 | 120 | -1.0 | 9
60 | 92 | -1.3 | 1

Later entries
entry | SMILES | Insulin prom inh | Insulin prom inh cell count | HSV replic up | HSV replic up primary fold
61 | CCOc1cc(N2CCOCC2)c(OCC)cc1NC(=O)c1ccc(S(C)(=O)=O)cc1 | -12 | 117 | i | 0.92
62 | O=C(NCCO)c1cc2ccccc2c(=O)s1 | 25 | 87 | i | 0.8
63 | O=C(NCCc1ccccc1)C(=O)NN=C1CCCC1 | -21 | 107 | x | x
64 | CCOc1ccc(C(=O)NCCN(C)C)cc1 | -34 | 139 | i | 1
65 | O=C(Nc1ccc([N+](=O)[O-])cc1)c1cn(-c2ccccc2)nc1-c1cc2ccccc2o1 | -37 | 86 | i | 0.72
66 | CC(C)(C)C(=O)Oc1cc(N)n(S(=O)(=O)c2ccc(F)cc2)n1 | 56 | 131 | i | 0.95
67 | CCOC(=O)Cn1nc(C)n(-c2ccccc2)c1=O | -32 | 81 | i | 0.81
68 | O=C(NCc1cccs1)C1CCN(C(=O)NCc2ccccc2)CC1 | -233 | 120 | i | 1.1
69 | CC1CC(C)(C)NC(=S)N1CCCC(=O)Nc1ccc2c(c1)OCCO2 (configuration not stated) | x | x | i | 0.94
70 | NC(=O)c1ccccc1N1CCCCC1 | x | x | i | 0.97

entry | RGS16-Gao HTS | GALR2 ag | PKD1 inh
61 | 102 | x | 2
62 | 99 | -1.7 | -1
63 | 103 | -1.2 | 4
64 | 102 | -2.3 | -6
65 | 104 | -0.9 | -10
66 | 87 | 0.9 | 2
67 | 101 | -2.4 | -15
68 | 102 | -1.4 | -11
69 | 99 | x | -1
70 | 94 | x | x
